Screens: PubChem BioAssay, National Center for Advancing Translational Sciences (NCATS)
RE007 growth inh = less growth of the S. pombe RE007 Vpr strain; actives 0.21% (n = 360,000); S. pombe RE007 Vpr strain, BacTiter-Glo ATP luminescence, 24 h; control for the full effect not named in the record; Potency, µM (titrated, usually from 92.2 µM), inactives show top-dose activity change, negative = less growth; AID 651644; active = well fitted falling curve with a large enough effect; inconclusive = small, poorly fitted or top-dose-only effect; inactive = no such curve, though single readings can be large or run the other way;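 further: on the % scale 0 is the no-effect control and ±100 the full control effect; nearly all actives have a fitted effect of over 50% in size; the assay follows cell death caused by Vpr and the record does not say whether a fall means rescue or toxicity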
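Fission yeast strain RE007, carrying one chromosomally integrated HIV-1 vpr copy, was seeded at OD 0.01 in PMG+AL medium with 23 nL pinned compound. After 24 h at 30 °C and 99% humidity, viability was read by BacTiter-Glo luminescence.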
LASV entry inh = Lassa virus entry inhibition; Potency, µM (titrated, usually from 37.9 µM), inactives show at the highest dose activity change, negative = inhibition, hits mostly inhibitors; Lassa virus pseudotype entry inhibition, cell reporter; control for the full effect not named in the record; actives 1.2% (n = 300,000); AID 540256; active means well fitted inhibition curve with a large enough effect; inconclusive means small, poorly fitted or top-dose-only effect, or effect the other way; inactive means flat fitted curve, though single readings scatter; tested in HEK293 cells; further: on the % scale 0 is the no-effect control and ±100 the full control effect; nearly all actives have a fitted effect of over 50% in size; luciferase read-out
Cruzain Triton = inhibitors of Trypanosoma cruzi cruzain with detergent | purified cruzain, Z-FR-AMC fluorescence, 0.01% Triton | Potency, µM, without a hit: max response, negative = inhibition, actives largely listed as inhibitors | actives 0.43% (n = 200,000) | AID 1478;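 further: plate controls were neutral wells for no effect and buffer without enzyme for full effect; nearly all actives have a fitted effect of over 40% in size; top concentration of the series not given in the record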
Target sequence (P25779 123-467 limits assumed): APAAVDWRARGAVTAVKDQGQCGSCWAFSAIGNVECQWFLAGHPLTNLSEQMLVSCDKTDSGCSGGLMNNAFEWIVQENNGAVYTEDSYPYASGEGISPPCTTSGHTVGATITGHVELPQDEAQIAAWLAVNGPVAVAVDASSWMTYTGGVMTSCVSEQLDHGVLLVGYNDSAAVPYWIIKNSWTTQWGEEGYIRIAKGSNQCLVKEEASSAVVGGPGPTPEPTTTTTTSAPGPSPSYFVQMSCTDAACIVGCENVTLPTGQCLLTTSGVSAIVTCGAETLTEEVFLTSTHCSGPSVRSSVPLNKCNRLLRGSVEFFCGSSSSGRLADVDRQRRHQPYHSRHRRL
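Sodium acetate buffer (100 mM, pH 5.5) containing 5 mM DTT and 0.01% Triton X-100 hosted 1.5 nM cruzain and test compound for 15 min at room temperature. Cleavage of 2 uM Z-FR-AMC was then tracked by fluorescence.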
Cruzain inh noDet = inhibitors of Trypanosoma cruzi cruzain without detergent; purified cruzain, Z-FR-AMC fluorescence, no detergent; Potency, µM, for the others: max response, negative = inhibition, actives largely listed as inhibitors; actives 2.3% (n = 200,000);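 further: plate controls were enzyme without inhibitor for no effect and buffer without enzyme for full effect; nearly all actives have a fitted effect of over 40% in size; top concentration of the series not given in the record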
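Detergent-free condition (0.00005% Triton X-100) in acetate buffer pH 5.5 with DTT. 1.5 nM enzyme and compound were pre-mixed 15 min, then 2 uM Z-FR-AMC substrate added; reaction progress from fluorescence change between first and third reads (60 s).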
Marburg entry inh = Marburg virus entry inhibition; Marburg virus pseudotyped entry inhibition, cell reporter; control for the full effect not named in the record; about a third of the inactives were read at about 46 µM; Potency, µM (series often up to 37.8 µM), inactives show top-dose activity change, negative = inhibition, usual class: inhibitors; actives 1.8% (n = 300,000); active = well fitted inhibition curve with a large enough effect; inconclusive = small, poorly fitted or top-dose-only effect, or effect the other way; inactive = flat fitted curve, though single readings scatter; tested in HEK293 cells; about a fifth of its hits are not listed in these tables; further: on the % scale 0 is the no-effect control and ±100 the full control effect; luciferase read-out
SARS PLpro yeast = inhibitors of SARS-CoV papain-like protease in yeast; AID 485353; Potency, µM (top dose mostly 32.9 µM), for inactives: at the top dose activity, positive = growth rescue; S. cerevisiae expressing SARS-CoV PLpro, growth rescue; control for the full effect not named in the record; actives 0.19% (n = 330,000); active means well fitted rising curve with a large enough effect; inconclusive means small, poorly fitted or top-dose-only effect; inactive means no such curve, though single readings can be large or run the other way; further: 0% is about no effect; nearly all actives have a fitted effect of over 55% in size; growth read by luminescence after 48 h
NS1 function inh = blocks influenza NS1 protein function | actives 0.4% (n = 270,000) | S. cerevisiae slowed by influenza A NS1, growth recovery by OD600 | Potency, µM (doses to about 46.1 µM), inactives show at the top dose activity, positive = more growth; active means well fitted rising curve with a large enough effect; inconclusive means small, poorly fitted or top-dose-only effect; inactive means no such curve, though single readings can be large or run the other way; further: nearly all actives have a fitted effect of over 50% in size
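Compounds were scored for reversing the slow growth caused by influenza A NS1 in S. cerevisiae, measured by optical density at 600 nm. Assay medium contained 2% galactose at pH 6.0; NS1-free yeast of the same strain were the positive control.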
2A StopGo = lowers the luciferase signal of an FMDV 2A StopGo reporter | human cells with a luciferase reporter of 2A StopGo recoding; control for the full effect not named in the record | Potency, µM (top dose mostly 57.9 µM), without a hit: at the highest dose signal change, negative = less light | actives 1.2% (n = 410,000) | AID 1159524; active = well fitted falling curve with a large enough effect; inconclusive = small, poorly fitted or top-dose-only effect; inactive = no such curve, though single readings can be large or run the other way; tested in HEK293T cells; further: on the % scale 0 is the no-effect control and ±100 the full control effect; nearly all actives have a fitted effect of over 45% in size; luciferase light after 4 h
Active calls of the source: *; ? = inconclusive; . = no result given; & = joins results of further samples; [ ] = dose if it differs, or a comment. Unless noted, the call rests on the fitted dose curve; in most records, active means well fitted curve in the direction sought with a large enough effect; inconclusive means small, poorly fitted or top-dose-only effect, or another doubt; inactive means no such curve, though single readings can be large; an effect the other way counts as inactive or inconclusive. Potency means the concentration at half of the fitted maximal effect.

SMILES	RE007 growth inh	LASV entry inh	Cruzain Triton	Cruzain inh noDet	Marburg entry inh	SARS PLpro yeast	NS1 function inh	2A StopGo
c1csc(-c2nnsc2-c2nc3ccccc3[nH]2)c1	-5%	4%	-6.2%	-21%	9%[46.1 µM]	-4%	-10%	-27%
O=C(CSc1nnc(CNC(=O)c2ccco2)o1)Nc1ccccc1	-4%	2%	.	.	-3%	-3%	.	-17%
Cc1cc(C)c2sc(N(CCN(C)C)C(=O)CCS(=O)(=O)c3ccccc3)nc2c1	-14%	?	.	.	?	1%	-5%	-21%
CCOC(=O)C1(C)C=C(Nc2ccc(O)cc2)C(=O)N1c1ccc(O)cc1 (stereo not drawn)	.	-16%	-7.1%	-9%	?	5%	1%	-14%
CC(=O)N(CC(C)(C)CC=C(C)C)c1ccccc1	.	.	-3.7%	16%	-2%	17%	-3%	.
COc1ccccc1C(=O)N/N=C/c1ccc(Cl)s1	-17%	-1%	-12%	-15%	52%	-35%	-26%	50%[activator]
COc1ccc(-c2cc(C(=O)Nc3c(C)nn(Cc4ccc(Cl)cc4)c3C)no2)cc1	-3%	-6%	-7.2%	?	23µM*	-2%	-9%	?
Cc1cc(C)c(C(=O)CSc2nnc(N)s2)c(C)c1	11%	.	.	.	.	0%	2%	-1%
Cc1ccccc1N1CCN(c2ncnc3scc(-c4cccs4)c23)CC1	8%	-43%	0.5%	?	23µM*	-9%	10%	?
COc1ccc(S(=O)(=O)N(CC(=O)NCc2ccco2)c2ccccc2)cc1OC	7%	3%	5.4%	9%	-21%	7%	2%	-5%
N#Cc1ccc(C(=O)Nc2nnc(-c3ccco3)o2)cc1	-14%	-15%	.	.	?	1%	.	53%[activator]
Cc1onc(-c2c(F)cccc2Cl)c1C(=O)N1CCCc2ccccc21	-19%	-18%	-0.6%	-1%	?	-8%	-14%	-16%
O=C(/C=C/c1cccc(Cl)c1)N1CCC(Cc2ccccc2)CC1	15%	0%	-8.1%	0%	?	-22%	-33%	24%
O=C1NN(c2ccc(Br)cc2)C(=O)/C1=C\c1ccc(O)cc1O	37%	-6%[46.1 µM]	.	.	?	-5%	4µM*	12%
CCCNC(=O)/C=C/c1ccc(S(=O)(=O)Nc2ccccc2OC)cc1	3%	5µM*	.	.	?	-5%	.	-16%
O=c1[nH]c(=O)n(Cc2ccccc2)c(O)c1/C=N/Nc1c(F)c(F)c(F)c(F)c1F	6%	.	.	.	.	-1%	3%	-5%
Cc1ccc(NC(=O)CN2C(=O)NC(C)(CC(C)C)C2=O)cc1F (stereo not drawn)	-4%	17%[46.1 µM]	.	.	8%[46.1 µM]	3%	.	21%
COc1ccc(-n2cc(-c3ccc(Cl)cc3)[nH]c2=S)cc1	1%	.	.	.	.	1%	3%	91%[activator]
COc1ccc(C)cc1N(C(=O)c1ccccc1)c1nc2ccccc2s1	7%	0%	-3.5%	?	?	-27%	7%	-24%
CC(=O)c1c(C)[nH]c(C(=O)CSc2nnc(-c3cccs3)n2Cc2ccccc2)c1C	-5%	?	-2.2%	-7%	?	-6%	?	-28%
COC(=O)c1ccc(/C=N/NC(=O)CC(=O)NC2CCCCC2)cc1	-5%	0%	.	.	8%&8%[46.1 µM]	-8%	.	19%
O=C(N/N=C/c1ccc(Cl)c([N+](=O)[O-])c1)C1CC1	-23%	-8%	.	.	6%	-3%	.	0%
Cc1ccc(OCc2nnc(-c3ccccc3)o2)cc1	.	30%[46.1 µM]	-6.4%	-12%	?	.	.	9%
COC(=O)C(c1ccccc1)N1CCCCCC1 (stereo not drawn)	-18%	1%	-1.9%	-11%	10%[46.1 µM]	.	25%	-8%
Cc1cccc(C)c1NC(=O)C(NC=O)c1ccc(Cl)cc1 (stereo not drawn)	16%	6%	4.2%	-7%	-30%	13%	12%	-20%
CCC12CN3CCN(CC(C3)C1O)C2 (stereo not drawn)	11%	?	1.6%	2%	4%	-9%	-3%	-15%
C=CCC(O)(CCN1CCCCC1)c1ccccc1 (stereo not drawn)	3%	11%	5.6%	-4%	?	4%	-1%	-29%
Cc1ccc(-c2nc(SCC(=O)Nc3cc(S(=O)(=O)N4CCCCC4)ccc3Cl)n[nH]2)cc1	6%	?	-3.6%	?	16µM*	8%	?	-25%
Nc1cc(OCc2ccccc2)ccc1OCc1ccccc1	-19%	-3%[46.1 µM]	.	.	?	.	.	36%[activator]
O=C(O)c1ccc(COc2ccc(Cl)cc2)o1	15%	?	-0.2%	-17%	21%	-4%	-40%	42%[activator]
Cc1ccc(NC(=O)C(=O)NCc2ccco2)c(C)c1	-1%	.	.	.	25%[46.1 µM]	-2%	5%	72%[activator]
COc1ccc(NC(=O)c2cnc(NS(=O)(=O)c3ccccc3)nc2)cc1	83%	-3%	.	.	19%[46.1 µM]	-3%	-10%	6%
CCOC(=O)c1nn(-c2ccccc2)c(C#N)c1NC(=O)c1nn(CC)cc1Br	-1%	?	0.7%	18%	0%&0%	.	-15%	4%
CN1CCC2(CC1)NC(=O)NC2=O	6%	2%	2.4%	-5%	6%[46.1 µM]	1%	2%	1%
COc1ccc(NC(=O)C2CCCN(S(=O)(=O)c3ccccc3)C2)c(OC)c1 (stereo not drawn)	7%	?	.	.	-26%[46.1 µM]	1%	-5%	-4%
O=S(=O)(c1ccc(F)cc1)N1CCN(c2ccccc2)CC1	-1%	?	1.0%	8%	-3%	-10%	-56%	13%
CC1CCC2C(=O)N(c3ccccc3OC(=O)c3ccccc3)C(=O)C2C1 (stereo not drawn)	-11%	3%	1.0%	-2%	2%	-8%	-2%	27%
O=C(COn1nnc2ccc(C(F)(F)F)cc21)Nc1nnc(-c2ccccc2)o1	18%	2%	0.6%	?	-18%	4%	-9%	0%
COc1ccc(C(=O)NCC(O)COc2ccc(C(C)(C)C)cc2)cc1[N+](=O)[O-] (stereo not drawn)	.	?	-6.5%	9%	.	20%	11%	.
O=C(Nc1nonc1-c1ccc(Br)cc1)c1ccco1	.	-5%[46.1 µM]	-4.2%	-10%	1%[46.1 µM]	.	.	-17%
CC(=O)Nc1ccc(NC(=O)C(C)OC(=O)C(C)SCC(=O)Nc2ccc(F)cc2)cc1 (stereo not drawn)	-5%	-24%	.	.	1%	3%	.	-20%
O=C(NNC(=O)c1n[nH]c(=O)c2ccccc12)c1ccc(Br)cc1	-4%	-1%	.	.	15%	-1%	-37%	-4%
O=C1CCC(=O)N1OCCCOc1ccccc1	-7%[3.69 µM]	0%	0.1%	-2%	19%	2%	-3%	19%
Cc1sc(NC(=O)CSc2nnc(N)s2)c(C#N)c1C	11%	6%[46.1 µM]	.	.	32%[46.1 µM]	0%	15%	-19%
Cc1occc1C(=O)Nc1cc(C(F)(F)F)ccc1Cl	8%	0%	0.9%	9%	18%	-4%	-40%	9%

4 compounds out of the list, sorted by length of the SMILES, high to low.
SMILES	RE007 growth inh	LASV entry inh	Cruzain Triton	Cruzain inh noDet	Marburg entry inh	SARS PLpro yeast	NS1 function inh	2A StopGo
CC1CCC2C(=O)N(c3ccccc3OC(=O)c3ccccc3)C(=O)C2C1 (stereo not drawn)	-11%	3%	1.0%	-2%	2%	-8%	-2%	27%
O=S(=O)(c1ccc(F)cc1)N1CCN(c2ccccc2)CC1	-1%	?	1.0%	8%	-3%	-10%	-56%	13%
Cc1ccc(NC(=O)C(=O)NCc2ccco2)c(C)c1	-1%	.	.	.	25%[46.1 µM]	-2%	5%	72%[activator]
O=C(Nc1nonc1-c1ccc(Br)cc1)c1ccco1	.	-5%[46.1 µM]	-4.2%	-10%	1%[46.1 µM]	.	.	-17%

Remaining list, next part:
SMILES	RE007 growth inh	LASV entry inh	Cruzain Triton	Cruzain inh noDet	Marburg entry inh	SARS PLpro yeast	NS1 function inh	2A StopGo
O=C(Cc1ccccc1[N+](=O)[O-])NC1CCN(Cc2ccccc2)CC1	-11%	.	.	.	.	-6%	-5%	-6%
COc1ccccc1/C=C(\C#N)c1nc(-c2cc3ccccc3oc2=O)cs1	.	19%[46.1 µM]	-1.2%	-7%	.	.	.	-1%
CCCn1c(C)cc(/C=C(\C#N)C(=O)OCC(=O)Nc2cccc(OC)c2)c1C	-4%	-17%	-5.3%	17%	-5%	-24%	-1%	0%
COc1cccc(C2=NOC(C(=O)Nc3cccnc3)C2)c1 (stereo not drawn)	12%	-1%	-1.2%	4%	-6%	1%	-12%	-5%
CCSc1nnc2c3cc(CC)ccc3n(C)c2n1	8%	.	.	.	.	1%	4%	31%[activator]
O=C(NCc1ccccc1F)c1ccc(S(=O)(=O)Nc2cccc(C(F)(F)F)c2)cc1	7%	-9%	-5.1%	4%	19%	-16%	.	-23%
CC1CN(c2oc(-c3cccs3)nc2C#N)CC(C)O1 (stereo not drawn)	-24%	-8%	28µM*	?	?	6%	0%	-13%
COc1c(Cl)cc(Cl)cc1C(=O)Nc1cccc(-c2nc3ccccc3o2)c1C	.	?	2.9%	-13%	?	.	.	-17%
Cc1cnc(C(=O)Nc2nc(-c3ccccc3)cs2)cn1	-5%	3%	-3.0%	6%	4%	10%	-3%	-12%
CCn1c2ccc(F)cc2c2nnc(SCCN3CCOCC3)nc21	-16%	.	.	.	.	0%	3%	-12%
Cc1ccccc1-n1ccnc1SCC(=O)O	-10%	5%	4.4%	-2%	3%	-4%	-4%	-7%
N#C/C(=N\O)c1nc(-c2ccccc2)cs1	-24%	1%&-3%	-12%&-14%	-20%&-15%	9%&15%	-15%&-10%	-211%&-114%	1%&-5%
CCn1c(=O)c(C(=O)CN(C)Cc2cccc(OC)c2OC)c(N)n(Cc2ccccc2)c1=O	-5%	2%	-0.1%	8%	?	3%	-3%	-17%
CC1CCC(NC(=O)CCN2C(=O)C3CC=CCC3C2=O)CC1 (stereo not drawn)	-3%	2%	.	.	?	4%	.	-11%
